High-throughput results: PubChem BioAssay, National Center for Advancing Translational Sciences (NCATS)
gsp antag: antagonists of gsp mutant (McCune-Albright syndrome); actives 0.4% (n = 340,000); gsp-mutant cells, cAMP HTRF, 30 min; control for the full effect not named in the record; Potency, µM (top dose mostly 76.9 µM), for the others: top-dose activity change, negative = inhibition, most hits filed as inhibitors; active = falling curve of any shape with a large fitted effect; inconclusive = falling curve, mostly with a smaller effect; inactive = flat or rising curve; cell line not stated here;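 further: intracellular cAMP measured with PDE inhibitor Ro 20-1724 present during compound exposure; potency means the concentration at half of the fitted maximal effect; on the % scale 0 is the no-effect control and ±100 the full control effect; nearly all actives have a fitted effect of over 65% in size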
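HTRF cAMP measurement after 30 min RT detection following 30 min, 37C compound treatment alongside […] (added as 300 uM solution) in G418-selected cells seeded at 2000/well and grown 16–24 h.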
TRPML1 inh: blocks the human TRPML1 channel; Q9GZU1; TRPML1-inducible cells, Ca2+ dye fluorescence, FDSS; hits give low values; inhibition of EC80 agonist-evoked calcium signal; activity change, negative = inhibition, % (concentration not given with the values); actives 0.02% (n = 390,000); in the data active means activity change below about -50%; inconclusive means about -30% to -50%; inactive means above about -30%;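 further: stimulus is agonist 54-4 at its EC80 concentration; on the % scale 0 is the no-effect control and ±100 the full control effect; compound concentration not given in the record; the text of the record puts the active cut at -80%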
Target sequence (Q9GZU1 whole entry, looked up): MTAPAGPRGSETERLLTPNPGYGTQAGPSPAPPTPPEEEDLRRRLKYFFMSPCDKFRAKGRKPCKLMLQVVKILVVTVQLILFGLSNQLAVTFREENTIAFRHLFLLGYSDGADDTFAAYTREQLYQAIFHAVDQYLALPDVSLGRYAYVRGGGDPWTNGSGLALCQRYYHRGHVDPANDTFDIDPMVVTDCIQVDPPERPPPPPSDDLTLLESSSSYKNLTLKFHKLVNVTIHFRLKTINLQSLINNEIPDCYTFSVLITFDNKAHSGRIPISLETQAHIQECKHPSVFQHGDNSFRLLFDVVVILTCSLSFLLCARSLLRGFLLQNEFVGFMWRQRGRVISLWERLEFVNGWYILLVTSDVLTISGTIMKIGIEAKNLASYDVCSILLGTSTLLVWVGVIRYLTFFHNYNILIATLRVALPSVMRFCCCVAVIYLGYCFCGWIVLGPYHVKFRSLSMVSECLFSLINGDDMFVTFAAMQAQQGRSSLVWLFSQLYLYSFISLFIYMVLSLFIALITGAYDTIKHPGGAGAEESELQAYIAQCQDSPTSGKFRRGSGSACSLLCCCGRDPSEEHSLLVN
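TRPML1-DL cells, Tet-induced overnight (~16 h, 37 °C) at 1,500 cells/well, were loaded with Ca8 no-wash dye plus quencher for 45-90 min at room temperature. Compounds were pinned during FDSS kinetic reading; agonist 54-4 at EC80 (4 uM final) then added.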
gsp agonist: agonists of gsp mutant (McCune-Albright syndrome) | gsp mutant cells, cAMP HTRF, 30 min; control for the full effect not named in the record | Potency, µM (highest dose often 76.9 µM), inactives show top-dose activation (cAMP increase), hits mostly activators | actives 0.13% (n = 340,000); active = well fitted activation curve with a large enough effect; inconclusive = small, poorly fitted or top-dose-only effect, or another doubt; inactive = no such curve, though single readings can be large or run the other way; cell line not stated here;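 further: phosphodiesterase inhibitor Ro 20-1724 added with compounds to block cAMP breakdown; potency means the concentration at half of the fitted maximal effect; nearly all actives have a fitted effect of over 60% in size; about a fifth of the inactives were tested at one dose only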
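Cells in DMEM/10% FBS with G418 were pretreated with compounds in DMSO plus […] (300 uM stock) for 30 min at 37C. cAMP was measured by HTRF (cAMP-d2 plus anti-cAMP antibody-K) after 30 min at room temperature.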
ClpP mod: qHTS Assay for Activators of ClpP. ATP-dependent Clp protease proteolytic subunit (Bacillus subtilis (strain 168)), P80244. purified B. subtilis ClpP, FRET peptide cleavage, 20 min. Potency, µM (titrated, usually from 57.5 µM), inactives show at the top dose activity change, negative = active. actives 1.9% (n = 340,000); active = well fitted falling curve with a large enough effect; inconclusive = small, poorly fitted or top-dose-only effect; inactive = no such curve, though single readings can be large or run the other way; further: potency means the concentration at half of the fitted maximal effect; the source files actives as falling curves though it sought activators and does not explain the sign; nearly all actives have a fitted effect of over 65% in size; many hits overshoot -100%
Target sequence (P80244 whole entry, looked up): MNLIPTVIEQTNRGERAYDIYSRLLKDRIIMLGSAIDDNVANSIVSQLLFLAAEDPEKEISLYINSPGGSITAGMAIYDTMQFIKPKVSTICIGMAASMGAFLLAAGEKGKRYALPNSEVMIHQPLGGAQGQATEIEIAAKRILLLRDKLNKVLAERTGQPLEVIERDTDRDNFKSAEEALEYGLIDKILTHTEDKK
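FRET quenching reversal measured ClpP activation: 10 microg/mL B. subtilis ClpP at pH 8 with the FRET-FV decapeptide, read at 430 nm after 320 nm excitation. The 20-min minus 0-min signal was scaled between DMSO/no-enzyme wells and ADEP (5.8 microM final).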
Menin MLL FP FL: menin-MLL binding inhibition, fluorescein peptide; 290,000 tested, under 10 active; Fluorescence polarization, fluorescein-MLL peptide displacement from menin; FP activity change, % at 61.4 µM; inconclusive = falling polarisation curve, or a change in total fluorescence; inactive = total fluorescence flat and polarisation flat or rising; no compound was filed as active; the % refers to the polarisation; negative = inhibition;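 further: % of control where 0% means no effect; inhibitors lower the polarisation; unlabelled MLL peptide was the positive control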
TRPML1 agonist: human mucolipin-1 channel agonism; AID 624414; activation, % (concentration not given with the values); actives 0.12% (n = 410,000); Q9GZU1; TRPML1-expressing cells, Ca2+ dye fluorescence, FDSS; host cell line not named in the record; reference of the full effect not given here; in the data active = activation above about 50%; inconclusive = about 30% to 50%; inactive = below about 30%; further: 0% is about no effect; the text of the record puts the active cut at 80%
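Calcium fluorescence on an FDSS kinetic reader gave the read-out. Tet-induced TRPML1-DL cells were plated overnight, dye-loaded (Ca8 with quencher, 45-90 min, room temperature, dark), then read 110 s after compound addition, and again 110 s after 4uM final 54-4 (EC80).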
Active calls of the source: *; ? = inconclusive; / = not tested or not shown; & = joins results of further samples; [ ] = another dose, or the depositor's remark.

Values run as follows: gsp antag | TRPML1 inh | gsp agonist | ClpP mod | Menin MLL FP FL | TRPML1 agonist
1) CCn1cc(CNC(=O)c2cccc([N+](=O)[O-])c2)cn1
 : 5.4% | 55.3 | ? | -3.2% | -1.2 | -0.6
2) CCc1cc(C(=O)OC)c(NC(=O)c2cc(Br)cs2)s1
 : -0.4% | -1.2 | 8.7% | -15.5% | 2.2 | 2.8
3) COc1ccc(NC(=O)COC(=O)CCCC2=NS(=O)(=O)c3ccccc3N2)cc1
 : -0.1% | 22.5 | -26.1% | -2.5% | / | -0.3
4) CCOC(=O)C1=C(N)OC(CCl)=C(C#N)C1c1ccsc1 (configuration not stated)
 : 6.6% | -3.3 | 9.7%[15.4 µM] | 0.7% | 5.6 | -0.3
5) NC(=O)c1ccccc1NC(=O)Nc1cccc2ccccc12
 : -18.0% | -17.8 | -3.1%[15.4 µM] | / | -7.1 | 0.6
6) CCc1ccc(S(=O)(=O)c2nnn3c2nc(NCCc2ccccc2)c2sccc23)cc1
 : / | 43.5 | / | 4.5% | / | 1.4
7) O=C(Nc1ccccc1)N1CCC(C(=O)N2CCN(Cc3ccccc3)CC2)CC1
 : 13.2% | -1.0 | -13.8% | -1.6% | / | 0.2
8) CCn1cc2nc(SCC(=O)Nc3ccccc3F)n(Cc3ccccc3)c(=O)c2n1
 : -21.7% | -0.4 | 4.1% | -0.5% | / | 1.6
9) O=C1[C@H]2CCC=C[C@H]2[C@H](c2cccc(Br)c2)N1Cc1ccccc1
 : -20.1% | 20.9 | / | -1.1% | 1.8 | 1.0
10) CC(C(=O)N1CCCc2ccccc21)N1C(=O)c2ccccc2C1=O (configuration not stated)
 : -4.4% | -4.2 | -6.1% | 0.9% | 1.7 | -0.6
11) CCCCOC(=O)CCN1C(=O)/C(=C2\SC(=S)N(CCC(=O)OCCCC)C2=O)SC1=S
 : 11.9% | 28.4 | -3.1% | -9.1% | 5.1 | 0.7
12) CCC(C)(C)n1nnnc1C(c1ccc(C)cc1)N1CCC(C)CC1 (configuration not stated)
 : 3.5% | 50.5 | -15.0% | -0.1% | 0.9 | -0.6
13) Cc1cc(NC(=O)CSc2nc(=O)n3cc(Cl)ccc3n2)no1
 : -1.1% | 2.4 | 36.8%[15.4 µM] | / | / | 0.1
14) Cc1ccc([C@H]2C[C@H](n3cc(-c4ccc(F)cc4)nn3)[C@@H](O)CN2C(=O)C2CCCCC2)cc1
 : / | -6.4 | ? | -1.9% | / | -0.5
15) C/C(=N\OCC(=O)OCC(=O)NCc1ccccc1)c1ccc2c(c1)OCO2
 : -11.8% | -2.7 | -33.0%[15.4 µM] | 0.6% | / | 1.3
16) CC(=O)Nc1cccc(Nc2nc(-c3cccs3)nc3ccccc23)c1
 : ? | -12.3 | 9.0% | / | -5.2 | 1.0
17) CCOc1ccccc1NC(=O)CSc1nc(=O)n(CCCN2CCOCC2)c2c1CCCC2
 : 3.3% | -0.6 | 5.9% | 1.9% | / | 0.0
18) COc1ccc(NC2=CC(=O)CC(C)(C)C2)cc1OC
 : -10.1% | 1.4 | 15.0% | -2.6% | 1.2 | 0.4
19) CCOC(=O)C1CCN(CC(O)COCc2cccs2)CC1 (configuration not stated)
 : 1.3% | -8.7 | ? | / | -10.3 | -0.5
20) Cc1cc(OC(=O)c2cccc(Cl)c2)c([N+](=O)[O-])c(=O)[nH]1
 : 10.2% | 0.4 | -12.5% | 1.5% | / | 0.5
21) O=C(Nc1ccccc1)c1ccc(Nc2c([N+](=O)[O-])cc([N+](=O)[O-])c3ccccc23)cc1
 : -10.1% | -1.2 | 0.2% | -1.8% | / | 0.1
22) COc1ccc(S(=O)(=O)NCC2CCCN(C(=O)c3occc3C)C2)cc1 (configuration not stated)
 : 11.0% | 4.5 | 9.4% | 0.2% | 1.4 | -1.0
23) O=C(Cc1ccccc1[N+](=O)[O-])N1CCc2ccccc2C1
 : -0.8% | -6.8 | 3.5%[15.4 µM] | / | -5.0 | 1.4
24) COc1ccc(C(=O)NC2CC3CCCC(C2)N3Cc2ccccc2)cc1OC (configuration not stated)
 : 10.6% | -6.2 | -17.6% | -5.4% | 1.4 | 0.6
25) CCCCn1nc(C(=O)N(C)C2CCCCC2)c2ccccc2c1=O
 : -8.8% | -4.1 | ? | 0.7% | / | 0.7
26) CC(=O)c1c(OC(=O)c2cccc(Cl)c2)c2ccccc2n1C
 : -13.5% | 1.5 | -36.8%[inhibitor] | -0.3% | 1.2 | 1.7
27) Cc1ccc(-n2ncc3c2CC(C)(C)CC3NC(=O)CCc2c(C)noc2C)cc1 (configuration not stated)
 : -13.4% | -2.9 | -21.9% | 1.6% | / | 1.5
28) COc1ccccc1NC(=O)CSc1nnc(C)o1
 : 6.0% | -3.2 | 1.8% | -0.1% | 0.8 | -0.2
29) O=C(c1cccc(NS(=O)(=O)c2cccc([N+](=O)[O-])c2)c1)N1CCOCC1
 : 1.6% | 9.9 | ? | / | 0.5 | -0.4
30) O=S(=O)(NCCc1ccncc1)c1ccc(F)cc1
 : 0.7% | 11.0 | 27.7%[15.4 µM] | ? | -3.7 | -0.5
31) COc1ccccc1CCc1nnc(CCC(=O)NC(C)Cc2ccsc2)o1 (configuration not stated)
 : 1.4% | -0.8 | -7.4%[15.4 µM] | / | 1.3 | -0.4
32) COCCn1c(=O)[nH]c2cc(C(=O)NCCN3CCN(c4ccccc4)CC3)ccc2c1=O
 : 8.3% | -12.6 | -2.0% | ? | 3.3 | -0.1
33) COc1cc(OC)c(NC(=O)c2cc3ccccc3cc2O)cc1Cl
 : 31.6µM* | 18.3 | -3.9% | -9.3% | / | 2.5
34) Cc1cccc(NC(=O)CSC2=Nc3ccccc3C3=NC(CC(=O)NCc4cccs4)C(=O)N23)c1 (configuration not stated)
 : / | 15.1 | / | -4.7% | / | 0.7
35) COCCN(C(=O)COC(=O)Cc1c(C)nc2ccccc2c1C)c1c(N)n(CC(C)C)c(=O)[nH]c1=O
 : 16.1% | 64.8 | -20.5% | -2.1% | / | -0.1
36) COC(=O)C1=C(C)NC(=O)CC1c1cc2c(cc1Br)OCO2 (configuration not stated)
 : -2.3% | 20.5 | 16.5% | 2.1% | -2.0 | -0.4
37) COc1ccc(C2C(CN3CCOCC3)C(=O)N2c2ccccc2)cc1 (configuration not stated)
 : 6.6% | -17.5 | 1.7%[15.4 µM] | -2.2% | 2.8 | -0.4
38) COC(=O)Cn1c(=O)oc2ccc(C)cc21
 : -16.0% | -6.2 | 10.3%[15.4 µM] | / | 0.9 | -0.1
39) CCOC(=O)c1c(S(=O)(=O)NCc2ccco2)c(C)n(C)c1C
 : 5.5% | 6.1 | 11.4% | -0.9% | 0.3 | -0.7
40) CC(=O)Nc1ccc(S(=O)(=O)NCC2CCC(C(=O)N3CCN(c4ccccn4)CC3)CC2)cc1 (configuration not stated)
 : 17.9% | 3.3 | -5.1% | -19.6% | 4.5 | -0.9
41) CCOc1ccc(Br)cc1S(=O)(=O)Nc1ccc(C(=O)Nc2ccc(C)cc2)cc1
 : -24.2% | -8.3 | -18.2% | -11.0% | 7.8 | -0.4
42) CCOC(=O)c1ccc(NC(=O)C(=O)NCc2ccco2)cc1
 : 7.6% | -4.4&-9.1 | -2.0% | 26.7% | -0.3 | 1.0&-1.0
43) Cc1cc(C)n2c(C)nnc2c1
 : 8.3% | 27.5 | ? | / | -5.9 | 0.0
44) CCCCNC(=O)C1CCN(C(=O)N2CC(C)Oc3ccc(Cl)cc32)CC1 (configuration not stated)
 : / | 18.4 | / | 0.9% | / | -0.8
45) CCn1nc(C)c(CN2CCN(Cc3ccc(OC)c(C)c3C)C(CCO)C2)c1C (configuration not stated)
 : 10.6% | -0.1 | -2.2% | / | 4.2 | -0.6
46) CS(=O)(=O)N1CCCC(C(=O)Nc2ccccc2F)C1 (configuration not stated)
 : 0.5% | -9.0 | -21.7% | / | ? | -0.2
47) CN(C)c1ccc(/C=N/N(CCC#N)C2=NS(=O)(=O)c3ccccc32)cc1
 : -17.6% | 4.2 | 9.8% | / | ? | 2.3
48) CCCC[C@@H]1C[C@H]1[C@@H](NC(=O)c1cccs1)c1ccc(Cl)cc1
 : -6.4% | 20.5 | / | -0.6% | 1.8 | 3.2
49) O=C(Nc1ccccc1C(F)(F)F)c1cc2ccccn2n1
 : / | 27.9 | / | -7.9% | / | -1.0
50) CNC(=S)N/N=C/c1c(C)cccc1Cl
 : 2.4% | 16.0 | -9.5%[15.4 µM] | -3.5% | -2.2 | -0.4
51) O=C(/C=C/c1ccc(S(=O)(=O)NCc2ccco2)cc1)N1CCN(c2ccccc2)CC1
 : -22.8% | 13.1 | 5.8% | / | 0.7 | 1.0
52) CCn1nc(C)c(Br)c1-c1nc(CS(=O)(=O)c2ccc(F)cc2)no1
 : -1.6% | -12.3 | -13.3%[15.4 µM] | / | -1.5 | 0.8
53) O=C(O)CCC(=O)N1N=C(c2ccccc2)CC1c1ccc2nccnc2c1 (configuration not stated)
 : 12.7% | -6.8 | ? | 0.2% | 4.9 | 0.0
54) COC(=O)c1cc(C(=O)OC)n(Cc2ccc(Br)cc2)n1
 : 8.8% | 5.5 | -10.7% | 0.1% | 0.7 | -0.2
55) O=C(Nc1cccc(-c2cn3cccnc3n2)c1)c1ccco1
 : -4.3% | 6.7 | 7.7% | -3.6% | -6.1 | -0.2
56) N#C/C(=C/C=C/c1ccccc1)C(=O)Nc1ccccc1
 : 13.5% | 5.7 | -61.8%[inhibitor] | -2.2% | 3.5 | -0.2
57) O=C(O)CCCCOn1ccnc1
 : 9.5% | 27.7 | -6.9%[15.4 µM] | / | -2.1 | -0.6
58) CCOc1ccccc1NC(=O)COc1ccc2c(c1)OCO2
 : -31.9% | 8.8 | -10.7% | / | -2.6 | 2.8
59) CC(=O)Oc1[nH]c(=O)c2cccc3c2c1CCC3
 : / | 6.1 | -26.0% | 4.7% | / | -0.8

4 records picked at random from the list so far, as already listed:
Values run as follows: gsp antag | TRPML1 inh | gsp agonist | ClpP mod | Menin MLL FP FL | TRPML1 agonist
40) CC(=O)Nc1ccc(S(=O)(=O)NCC2CCC(C(=O)N3CCN(c4ccccn4)CC3)CC2)cc1 (configuration not stated)
 : 17.9% | 3.3 | -5.1% | -19.6% | 4.5 | -0.9
29) O=C(c1cccc(NS(=O)(=O)c2cccc([N+](=O)[O-])c2)c1)N1CCOCC1
 : 1.6% | 9.9 | ? | / | 0.5 | -0.4
12) CCC(C)(C)n1nnnc1C(c1ccc(C)cc1)N1CCC(C)CC1 (configuration not stated)
 : 3.5% | 50.5 | -15.0% | -0.1% | 0.9 | -0.6
19) CCOC(=O)C1CCN(CC(O)COCc2cccs2)CC1 (configuration not stated)
 : 1.3% | -8.7 | ? | / | -10.3 | -0.5
